Screening results as filed in PubChem BioAssay.
Rango complex inh – inhibitors of Rango-importin beta complex formation. AID 540263. Potency, µM (doses to about 92.2 µM), inactives show at the top dose inhibition of complex formation. 340,000 compounds, 0.031% hits. Q14974. Rango CFP/YFP FRET sensor + importin beta, 45 min; active = rising FRET ratio curve, often small or poorly fitted; inconclusive = mostly compound fluorescence or quenching in the first reads; inactive = flat curves in all reads;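 note: potency is the fitted concentration of half-maximal effect; 0% = DMSO wells and 100% = buffer wells lacking importin beta; nearly all actives have a fitted effect of over 15% in size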
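Inhibition scored from the CFP 486 nm/YFP 530 nm FRET ratio 45 min after adding 0.125 microM importin beta to 50 nM Rango biosensor preincubated 5 min with compound (room temperature, PBS with DTT, Tween-20, BSA). No-importin wells as positive control.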
GLA inh pH 4.5 – alpha-galactosidase A (human) inhibition, pH 4.5; activity change, negative = inhibition, % at 105 µM; 230,000 tested, under 10 active; purified enzyme, 4-MU-alpha-Gal fluorescence, pH 4.5; inconclusive = small, poorly fitted or top-dose-only inhibition, or a rising curve; inactive = flat fitted curve, though single readings scatter; no compound was filed as active;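 note: 0% = full activity with enzyme and -100% = basal without enzyme; dose as in the result columns while the protocol names 77 µM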
Target sequence (P06280 whole entry, looked up): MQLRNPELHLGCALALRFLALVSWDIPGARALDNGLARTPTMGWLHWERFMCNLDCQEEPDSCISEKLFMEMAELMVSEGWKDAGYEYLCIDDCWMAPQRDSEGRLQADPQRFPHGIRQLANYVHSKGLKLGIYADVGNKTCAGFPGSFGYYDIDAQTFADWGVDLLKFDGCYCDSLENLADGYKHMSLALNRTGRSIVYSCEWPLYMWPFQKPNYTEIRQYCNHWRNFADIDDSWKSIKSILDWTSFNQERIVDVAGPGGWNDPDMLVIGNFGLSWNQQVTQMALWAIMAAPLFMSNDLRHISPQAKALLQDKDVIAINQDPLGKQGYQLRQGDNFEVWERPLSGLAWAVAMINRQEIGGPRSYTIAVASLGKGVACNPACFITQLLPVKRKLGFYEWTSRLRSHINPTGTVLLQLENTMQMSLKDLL
Rango dissoc inh – prevents RanGTP from dissociating the Rango-importin beta complex; O95149+P62826; Biochemical FRET Rango-importin beta, RanGTP-induced dissociation; Potency, µM (titrated, usually from 46.1 µM), without a hit: at the top dose activity change, negative = inhibition; 340,000 compounds, 0.071% hits; AID 540253; active means falling FRET ratio curve, often poorly fitted, with flat reads before Ran was added; inconclusive means other falling curves, or compound fluorescence or quenching; inactive means flat or rising ratio curve;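 note: potency is the fitted concentration of half-maximal effect; % of control where 0% means no effect; nearly all actives have a fitted effect of over 45% in size; -100% = wells without RanGTP and RCC1; the record marks most hits as doubtful in a second field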
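Compounds preincubate 5 min with complex of recombinant Rango and importin beta in PBS with 1 mM DTT. Ran (0.6 uM) loaded with 2 mM GTP plus 0.2 uM RCC1 starts dissociation; FRET is recorded 45 min later.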
miR-21 reporter – raises the signal of a miR-21 reporter. 340,000 tested, under 10 active. HeLa miR-21 FLuc reporter, luciferase, 48 h. AID 2288. Potency, µM (series often up to 38.3 µM), inactives show at the top dose reporter change, positive = more light; active = well fitted rising curve with a large enough effect; inconclusive = small, poorly fitted or top-dose-only effect; inactive = no such curve, though single readings can be large or run the other way;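 note: % of control where 0% means no effect; miR-21 action dims this reporter so a rising signal means less miR-21 action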
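Luminescence from a firefly luciferase reporter carrying a miR-21 binding site downstream, stably expressed under a CMV promoter in HeLa cells that make miR-21 endogenously, reports miRNA modulation after 48 h compound exposure up to approximately 40uM final.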
Active calls of the source: *; ? = inconclusive; · = not tested or not shown; & = joins results of further samples. Some of the compounds tested, so the mix of outcomes need not match the whole.

Compound	GLA inh pH 4.5	Rango complex inh	Rango dissoc inh	miR-21 reporter
COc1cccc2cc(-c3ccnc(N)n3)oc12	10	0.6%	12%	-54%
O=C(N1CCCCC1)C1(c2ccccc2)CCOCC1	·	0.3%	4%	-7%
CC(=O)N[C@@H](C)c1nc2ccccc2n1CCCN1CCN(c2nc(-c3ccc(C)cc3)cs2)CC1	·	?	-21%	26%
CC1CCCC(C)N1CCNC(=O)Nc1ccc(Cl)cc1 (stereo not given)	2	-4.8%	-12%	-9%
CC1=CC2CC1C1C(=O)N(c3ccc(S(=O)(=O)Nc4nc(C)cc(C)n4)cc3)C(=O)C21 (stereo not given)	9	4.5%	10%	-8%
Cc1cc(C)nc(NS(=O)(=O)c2ccc(NC(=O)c3ccc(N4C(=O)CCC4=O)cc3)cc2)n1	12	-0.1%	-20%	0%
Nc1nc(C(F)(F)F)c(Br)c(=O)n1N	-9	-2.0%	-5%	0%
CCN(CC(=O)Nc1ccc(N2CCOCC2)cc1)C(=O)c1ccc(C#N)cc1	-6	0.8%	3%	0%
CCN(C(=O)COC(=O)CCS(=O)(=O)c1ccccc1)c1c(N)n(Cc2ccccc2)c(=O)[nH]c1=O	·	2.6%	-5%	·
COc1ccc(C(=O)N2CCN(C(=O)C3COc4ccccc4O3)CC2)cc1 (stereo not given)	·	?	-21%	1%
CCC1CCC(C(=O)NNC(=O)c2cc(-c3ccco3)[nH]n2)CC1 (stereo not given)	-1	-2.5%	-5%	3%
CCOC(=O)c1c(C)n(CCNC(C)=O)c2ccc(OC)cc12	-17	-2.6%	1%	3%
COc1ccc(NC2=CC(c3ccc(F)cc3)N(c3ccc(OC)cc3)C2=O)cc1 (stereo not given)	-2	-4.4%	1%	-8%
Cc1cnc(C(=O)Oc2cccc(Cl)c2Cl)cn1	·	2.9%	5%	1%
COc1ccc(/C=C(\NC(=O)c2ccco2)C(=O)NC(Cc2ccccc2)C(=O)O)cc1 (stereo not given)	·	-4.0%	-24%	0%
COc1ccc(N2CC(C(=O)Nc3nnc(SCC(=O)N4CCCC4)s3)CC2=O)cc1 (stereo not given)	·	-0.9%	1%	1%
CS(=O)(=O)NCCn1ccc2ccccc21	7	0.3%	-10%	3%
O=C(/C=C/c1ccccc1[N+](=O)[O-])OCC(=O)N1CCCC1	·	-1.4%	-18%	·
CC[C@]12C(=O)N(C)C[C@H]([C@@H]3C(=O)N(C)C(=O)[C@@H]31)N2C(=O)c1ccccc1	·	4.0%	-4%	·
O=C1c2ccccc2S(=O)(=O)c2cc(N3CCN(C(=O)c4ccccc4)CC3)ccc21	·	?	?	·
Cc1cc(C)c(NC(=O)CSc2nc3ncc(Br)cc3[nH]2)c(Cl)c1	·	-0.5%	9%	7%
COC(=O)c1ccc(S(=O)(=O)N2CCOCC2)o1	·	0.2%	5%	1%
Cc1ccc(NC(=O)/C(C#N)=C/c2ccc(C)s2)c(C)c1	1	21%	1%	-23%
CC[n+]1ccc(C)c2cc(P(=O)(c3ccccc3)c3ccccc3)ccc21	8	-3.8%	-9%	6%
CC(=O)Nc1nnc(COc2ccccc2)s1	-2	-1.6%	-4%	-33%
CC(C(=O)NCc1ccc2c(c1)OCO2)N(c1ccccc1)S(C)(=O)=O (stereo not given)	-4	0.5%	0%	-5%
O=C(NCCc1ccccc1)c1ccc(Cl)c(S(=O)(=O)N2CCCC2)c1	·	5.2%	2%	16%
CN(C)c1ccc(C(C#N)c2ccccc2)nn1 (stereo not given)	-5	0.9%	-7%	-18%
COCCNC(=O)C1=C(N)C(C(=O)Nc2ccc(C)c(S(=O)(=O)N3CCCCC3)c2)SC1=Nc1ccc(C)cc1C (stereo not given)	-10	0.3%	-19%	4%
Cc1cc(NC(=O)C(C)SCC(=O)N(C)CC(=O)Nc2ccccc2C(F)(F)F)no1 (stereo not given)	·	-0.3%	0%	·
CC(C)c1cccc(C2=CC(=O)C[C@H](c3ccc4c(c3)OCO4)C2)c1	·	-3.8%	9%	·
COc1cc(OC)cc(C(=O)NNC(=O)CN2C(=O)NC(C)(c3ccc(C)cc3)C2=O)c1 (stereo not given)	·	-0.2%	6%	·
Clc1ccccc1CNc1nc2ccccc2n2cnnc12	-5	-0.7%	-14%	-1%
Cc1ccsc1C(=O)Nc1ccc(O)c(-c2nc3ccccc3s2)c1	-17	?	-5%	-29%
Cc1ccc(NC(=O)c2sc3ncn(CC(=O)N4CCOCC4)c(=O)c3c2C)c(Br)c1	·	-0.4%	4%	0%
CCOc1ccccc1OCCCC(=O)Nc1ccc(S(=O)(=O)Nc2cc(C)nc(C)n2)cc1	·	-1.4%	-10%	·
O=c1c2ccccc2ccc2ccccc12	·	-0.1%	-7%	·
CCCC(=O)NC(=S)Nc1ccc(C(C)=O)cc1	2	-2.5%	-6%	-38%
Cc1ccc(/C=N/Nc2ccccn2)s1	·	4.3%	21%	-47%
S=C(NCCc1ccccc1)Nc1ccc(Br)cn1	-12	5.1%	6%	-19%
O=C(O)/C(=N/NC(=O)c1ccc(Cl)cc1)c1ccccc1	-3	-1.6%	-2%	1%
O=C(CCS(=O)(=O)c1cccs1)NC1CCCCCC1	-3	-2.6%	-9%	-36%
Cc1ccc(NC(=O)CS(=O)CC(=O)NCCCc2ccccc2)cc1Cl (stereo not given)	-5	-0.2%	23%	-5%
Clc1ccc(-c2nnc(NC3=NCCCCC3)o2)cc1	6	-2.6%	12%	9%
CCNC(=O)Nc1cc(OC)c(OC)cc1C(=O)O	-16	2.1%	2%	-1%
COc1ccccc1C(=O)NC(CCSC)C(=O)OCC(=O)N1CCN(S(=O)(=O)c2ccc(C)cc2)CC1 (stereo not given)	·	4.4%	11%	·
OCCC1CN(Cc2cn[nH]c2C2CCCCC2)CCN1Cc1ccccc1 (stereo not given)	-21	0.5%	-1%	-2%
CSc1ccc(S(=O)(=O)Nc2ccc(OCC(=O)N3CCOCC3)cc2)cc1	-9	-2.7%	3%	3%
CCOCCCNC(=S)N1CCC(C(=O)c2ccc3c(c2)OCCO3)CC1	-22	?	-1%	-3%
O=C(CCC(=O)c1cccs1)Nc1nnc(C2CC2)s1	0	-6.9%	14%	-6%
ONC(=Nc1ccccc1)c1ccccc1Cl	1	-2.3%	12%	-6%
CC(/C=C/c1ccco1)=N\NC(=O)c1cccc(Cl)c1	-9	0.2%	1%	-30%
Cc1cccc2sc(N3CCN(C(=O)c4cccs4)CC3)nc12	·	-0.4%	5%	·
CC1CCc2c(sc(NC(=O)COC(=O)c3ccc(NC(=O)CC#N)cc3)c2C#N)C1 (stereo not given)	·	?	-13%	·
N#Cc1cc(-c2ccccc2)cnc1Sc1ccccc1	-13	-1.1%	-16%	-27%
O=C(c1ccccc1)N1CCN(CC(O)COc2cccc3ccccc23)CC1 (stereo not given)	·	0.0%	1%	-7%
COc1ccc(NC2CCCN(C(=O)c3cccc(N4CCNC4=O)c3)C2)cc1 (stereo not given)	·	-1.3%	6%	0%
CCC(=O)c1cn(CCOc2ccccc2OC)c2ccccc12	·	?	-1%	13%
O=S(=O)(NCc1csc(-c2cccs2)n1)c1cccs1	-12	0.5%	-12%	-20%
CCC(C)n1c(-c2cc(OC)c(OC)c(OC)c2)nc2nc3ccccc3nc21 (stereo not given)	-12	·	·	29%

A draw from above in order of formula weight, largest number first.
Compound	GLA inh pH 4.5	Rango complex inh	Rango dissoc inh	miR-21 reporter
COCCNC(=O)C1=C(N)C(C(=O)Nc2ccc(C)c(S(=O)(=O)N3CCCCC3)c2)SC1=Nc1ccc(C)cc1C (stereo not given)	-10	0.3%	-19%	4%
CCOc1ccccc1OCCCC(=O)Nc1ccc(S(=O)(=O)Nc2cc(C)nc(C)n2)cc1	·	-1.4%	-10%	·
Cc1cc(C)nc(NS(=O)(=O)c2ccc(NC(=O)c3ccc(N4C(=O)CCC4=O)cc3)cc2)n1	12	-0.1%	-20%	0%
CC1CCc2c(sc(NC(=O)COC(=O)c3ccc(NC(=O)CC#N)cc3)c2C#N)C1 (stereo not given)	·	?	-13%	·
COc1ccc(NC2CCCN(C(=O)c3cccc(N4CCNC4=O)c3)C2)cc1 (stereo not given)	·	-1.3%	6%	0%
CC[C@]12C(=O)N(C)C[C@H]([C@@H]3C(=O)N(C)C(=O)[C@@H]31)N2C(=O)c1ccccc1	·	4.0%	-4%	·
CCC(=O)c1cn(CCOc2ccccc2OC)c2ccccc12	·	?	-1%	13%

Following part
Compound	GLA inh pH 4.5	Rango complex inh	Rango dissoc inh	miR-21 reporter
CCOC(=O)CCNC(=O)N1CCCC(C(=O)c2cccc(OC(C)C)c2)C1 (stereo not given)	·	-1.8%	5%	17%
O=C(CSc1cccc2cccnc12)Nc1cc(C(=O)O)cc(C(=O)O)c1	·	5.7%	20%	4%
N#Cc1ccc(NC(=O)Cn2cnc(S(=O)(=O)N3CCCC3)c2)cc1	·	7.6%	1%	1%
O=C(CCC(=O)OCC(F)(F)C(F)F)Nc1ccccc1F	-4	-0.7%	-6%	-1%
O=C(CN1CCSCC1)c1c[nH]c2ccccc12	3	2.2%	4%	-14%
COc1cccc(OC)c1C(=O)Nc1nnc(-c2cccs2)s1	5	0.4%	14%	-2%
CC1CCC(C(=O)NC(C(=O)NCc2cccnc2)C(C)C)CC1 (stereo not given)	0	-0.2%	5%	-2%
CC(C)CCn1c(=O)c2ccccc2n2c(COC(=O)c3ccc(S(=O)(=O)N(C)C)cc3)nnc12	1	·	·	-4%
COc1cccc(N(Cc2nnc3n2CCCCC3)C(=O)Nc2ccccc2)c1	6	2.9%	-18%	-5%&-8%
O=C(Cn1c(=O)cnc2ccccc21)N1CCN(S(=O)(=O)c2ccc(F)cc2)CC1	·	-1.5%	-3%	·
CCCOc1c(Br)cc(C(N)=O)cc1OCC	4	5.5%	10%	16%
COc1ccc(N(CC(=O)N2CCC(Cc3ccccc3)CC2)S(C)(=O)=O)cc1	-4	0.7%	6%	0%
CC1(C)Cc2noc(N)c2C(C)(C)N1O	5	0.0%	-10%	-2%
O=Cc1ccc(O)cc1O	·	-0.3%	-17%	0%
COc1ccccc1C(=O)NC(=S)Nc1ccc(NC(=O)c2cccs2)cc1	4	1.4%	-1%	-8%
CCCn1c(NC(=O)CSCC(=O)Nc2cc(C)on2)nc2ccccc21	·	?	9%	·
COc1cc2nc(C3CCC3)nc(N3CCN(c4ccccn4)CC3)c2cc1OC	-15	1.7%	1%	-19%
Cc1ccc(OCCSc2nnc(C)c(=O)n2N)cc1	1	-1.1%	8%	-21%
COc1ccc(-c2cc3nc4n(c(=O)c3s2)CCC4)cc1	-7	-2.7%	-2%	-16%
N#Cc1c(-c2ccc(Cl)cc2)ccn2nc(CCC(=O)O)nc12	-1	-1.5%	-8%	-12%
CCC(=O)n1nc(-c2ccc(OC)cc2)nc1SC	2	0.4%	1%	-45%
CC(C)(C)C(=O)NC1(C(F)(F)F)NC(=O)N(Cc2ccccc2)C1=O (stereo not given)	1	-0.7%	-8%	4%
O=C(CC(Cc1ccccc1)C(=O)O)Nc1ccccc1 (stereo not given)	·	0.0%	13%	-3%
CCOc1cc(N2CCOCC2)c(OCC)cc1NC(=O)Cc1ccc(OC)c(OC)c1	-8	?	2%	-4%
COc1ccc(C(=O)NC(Nc2ccccc2)C(Cl)(Cl)Cl)cc1 (stereo not given)	6	1.0%	-18%	2%
CSc1ccc(S(=O)(=O)NCC(=O)OCC(=O)N(C)C2CCCCC2)cc1[N+](=O)[O-]	·	-0.7%	13%	·
CC(=O)Nc1ccc(NC(=O)c2ccccc2N(Cc2ccccc2)S(C)(=O)=O)cc1	·	-2.3%	2%	-1%
